MARV entry inh: blocks Marburg virus binding to or entry into cells; Marburg virus pseudotyped entry inhibition, cell reporter; control for the full effect not named in the record; about a third of the inactives were read at about 46 µM; Potency, µM (top dose mostly 37.8 µM), without a hit: at the highest dose activity change, negative = inhibition, hits mostly inhibitors; 300,000 tested, 1.8% active; active = well fitted inhibition curve with a large enough effect; inconclusive = small, poorly fitted or top-dose-only effect, or effect the other way; inactive = flat fitted curve, though single readings scatter; tested in HEK293 cells; about a fifth of its hits are not listed in these tables; note: % is set by controls: 0 for no effect and ±100 for the full control effect; luciferase read-out
SARS PLP yeast: inhibitors of SARS-CoV papain-like protease in yeast; S. cerevisiae expressing SARS-CoV PLpro, growth rescue; control for the full effect not named in the record; Potency, µM (doses to about 32.9 µM), for the others: top-dose activity, positive = growth rescue; 330,000 tested, 0.19% active; AID 485353; active means well fitted rising curve with a large enough effect; inconclusive means small, poorly fitted or top-dose-only effect; inactive means no such curve, though single readings can be large or run the other way; note: 0% is about no effect; nearly all actives have a fitted effect of over 55% in size; growth read by luminescence after 48 h
Cruzain inh noDet: cruzain (T. cruzi) inhibition without detergent | 200,000 tested, 2.3% active | Potency, µM, without a hit: max response, negative = inhibition, most hits filed as inhibitors | P25779 | purified cruzain, Z-FR-AMC fluorescence, no detergent;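 note: plate controls were enzyme without inhibitor for no effect and buffer without enzyme for full effect; nearly all actives have a fitted effect of over 40% in size; top concentration of the series not given in the record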
Target sequence (P25779 123-467 limits assumed): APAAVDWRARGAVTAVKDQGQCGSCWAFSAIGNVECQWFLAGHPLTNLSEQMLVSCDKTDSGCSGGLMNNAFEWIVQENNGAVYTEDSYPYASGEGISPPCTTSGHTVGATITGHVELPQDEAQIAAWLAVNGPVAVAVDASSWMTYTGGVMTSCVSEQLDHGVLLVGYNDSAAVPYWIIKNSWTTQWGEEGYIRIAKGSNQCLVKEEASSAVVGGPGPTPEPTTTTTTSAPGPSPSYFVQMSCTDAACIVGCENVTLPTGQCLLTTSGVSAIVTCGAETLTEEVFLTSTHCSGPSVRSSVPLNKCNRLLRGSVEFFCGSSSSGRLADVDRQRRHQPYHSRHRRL
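Purified cruzain at 1.5 nM, pre-incubated 15 min with compound at room temperature in 100 mM sodium acetate pH 5.5, 5 mM DTT, 0.00005% Triton X-100. Reaction started with 2 uM Z-FR-AMC; AMC fluorescence increase over 60 s gives rate.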
StopGo reporter: lowers the luciferase signal of an FMDV 2A StopGo reporter; human cells with a luciferase reporter of 2A StopGo recoding; control for the full effect not named in the record; Potency, µM (series often up to 57.9 µM), without a hit: at the top dose signal change, negative = less light; 410,000 tested, 1.2% active; AID 1159524; active = well fitted falling curve with a large enough effect; inconclusive = small, poorly fitted or top-dose-only effect; inactive = no such curve, though single readings can be large or run the other way; tested in HEK293T cells; note: % is set by controls: 0 for no effect and ±100 for the full control effect; nearly all actives have a fitted effect of over 45% in size; luciferase light after 4 h
Cruzain inh Det: inhibitors of Trypanosoma cruzi cruzain with detergent | 200,000 tested, 0.43% active | P25779 | purified cruzain, Z-FR-AMC fluorescence, 0.01% Triton | AID 1478 | Potency, µM, without a hit: max response, negative = inhibition, most hits filed as inhibitors;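 note: plate controls were neutral wells for no effect and buffer without enzyme for full effect; nearly all actives have a fitted effect of over 40% in size; top concentration of the series not given in the record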
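Z-FR-AMC hydrolysis (2 uM substrate) by cruzain (1.5 nM) monitored kinetically at ex 360/em 450 nm after 15 min room-temperature compound exposure; 0.01% Triton X-100, pH 5.5, 5 mM DTT.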
NS1 inh: blocks influenza NS1 protein function; S. cerevisiae slowed by influenza A NS1, growth recovery by OD600; 270,000 tested, 0.4% active; Potency, µM (series often up to 46.1 µM), without a hit: top-dose activity, positive = more growth; active means well fitted rising curve with a large enough effect; inconclusive means small, poorly fitted or top-dose-only effect; inactive means no such curve, though single readings can be large or run the other way; note: nearly all actives have a fitted effect of over 50% in size
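A cell-based growth assay was used: compounds that relieve NS1-induced slow growth of budding yeast raise OD600. Assay medium was yeast nitrogen base with ammonium sulphate and -URA supplement, pH 6.0, with 2% galactose.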
RE007 growth inh: less growth of the S. pombe RE007 Vpr strain. S. pombe RE007 Vpr strain, BacTiter-Glo ATP luminescence, 24 h; control for the full effect not named in the record. 360,000 tested, 0.21% active. Potency, µM (highest dose often 92.2 µM), for the others: at the top dose activity change, negative = less growth. AID 651644; active = well fitted falling curve with a large enough effect; inconclusive = small, poorly fitted or top-dose-only effect; inactive = no such curve, though single readings can be large or run the other way;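 note: % is set by controls: 0 for no effect and ±100 for the full control effect; nearly all actives have a fitted effect of over 50% in size; the assay follows cell death caused by Vpr and the record does not say whether a fall means rescue or toxicity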
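Fission yeast RE007 carrying one integrated HIV-1 vpr copy, seeded at OD 0.01 in PMG+AL medium with 23 nL pinned compound. Grown 24 h at 30 degrees; viability read by BacTiter-Glo luminescence after 5 min.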
Lassa entry inh: blocks Lassa virus binding to or entry into cells; Lassa virus pseudotype entry inhibition, cell reporter; control for the full effect not named in the record; Potency, µM (series often up to 37.9 µM), inactives show at the highest dose activity change, negative = inhibition, hits mostly inhibitors; 300,000 tested, 1.2% active; AID 540256; active means well fitted inhibition curve with a large enough effect; inconclusive means small, poorly fitted or top-dose-only effect, or effect the other way; inactive means flat fitted curve, though single readings scatter; tested in HEK293 cells; note: % is set by controls: 0 for no effect and ±100 for the full control effect; nearly all actives have a fitted effect of over 50% in size; luciferase read-out
An asterisk follows results filed as active; & = joins results of further samples; [ ] = another dose, or the depositor's remark. Unless noted, calls come from the whole dose curve; as a rule, active = well fitted curve in the direction sought with a large enough effect; inconclusive = small, poorly fitted or top-dose-only effect, or another doubt; inactive = no such curve, though single readings can be large; an effect the other way counts as inactive or inconclusive. Potency is the fitted concentration of half-maximal effect.

Screening CC(Sc1ccccc1)C(=O)Nc1ccc(N2CCOCC2)cc1 (configuration not stated) returned MARV entry inh 18%, SARS PLP yeast 13%, Cruzain inh noDet -2%, StopGo reporter 27%, Cruzain inh Det -2.1%, NS1 inh 6%, RE007 growth inh 8% and Lassa entry inh 12%.
`COc1ccc(C)cc1NC(=O)C1CCN(S(=O)(=O)c2cccc3nonc23)CC1` gave MARV entry inh inconclusive, SARS PLP yeast 0%, Cruzain inh noDet 0%, StopGo reporter -8%&-27%, Cruzain inh Det -8.4%, NS1 inh -6%, RE007 growth inh 3% and Lassa entry inh 22%&18%[46.1 µM].
Cc1ccc(NC(=O)CSc2nc3c([nH]c4ccccc43)c(=O)n2-c2ccccc2)cc1Cl was read as Cruzain inh noDet 2%, StopGo reporter -20%, Cruzain inh Det -2.4% and Lassa entry inh inconclusive.
O=C(N/N=C\c1cccnc1)c1ccccc1O was read as MARV entry inh 1%, SARS PLP yeast 2%, StopGo reporter 30%, NS1 inh 12%, RE007 growth inh -12% and Lassa entry inh 11%.
`Cc1cccc(NC(=O)c2ccc(COc3cccc4ccccc34)o2)n1` gave MARV entry inh 5%, SARS PLP yeast -14%, Cruzain inh noDet -9%, StopGo reporter 0%, Cruzain inh Det -14%, NS1 inh 11%, RE007 growth inh -6% and Lassa entry inh -11%.
COc1cccc(OC)c1C(=O)Nc1ccccc1NC(=O)c1c(OC)cccc1OC was read as MARV entry inh inconclusive, SARS PLP yeast 1%, StopGo reporter 9%, NS1 inh -2%, RE007 growth inh -6% and Lassa entry inh inconclusive.
CCOC(=O)c1c(NC(=O)CSc2ncn[nH]2)sc(C(C)=O)c1C was read as SARS PLP yeast -6%, StopGo reporter inconclusive, NS1 inh 18% and RE007 growth inh 0%.
For COc1cc(/C=C(\C#N)C(=O)Nc2ccc3ccccc3c2)c([N+](=O)[O-])cc1OC the results were MARV entry inh 0%, SARS PLP yeast 6%, Cruzain inh noDet 0%, StopGo reporter inconclusive, Cruzain inh Det -11%, NS1 inh 3%, RE007 growth inh -9% and Lassa entry inh 6%.
For COc1cccc(C(=O)Nn2c(C)nnc2-n2nc(C)cc2C)c1 the results were MARV entry inh 1%[46.1 µM], SARS PLP yeast 23%, Cruzain inh noDet 10%, StopGo reporter -15%, Cruzain inh Det 2.0%, NS1 inh 3%, RE007 growth inh -17% and Lassa entry inh 1%.
For O=[N+]([O-])c1ccc(O)c(/C=N\N=C2c3ccccc3-c3ccccc32)c1 the results were MARV entry inh 14µM*, SARS PLP yeast -38%, Cruzain inh noDet inconclusive, StopGo reporter inconclusive, Cruzain inh Det -4.1%, NS1 inh -6%, RE007 growth inh -9% and Lassa entry inh inconclusive.
`Cc1cccc(NC(=O)CSCC(=O)OCc2ccccn2)c1` gave MARV entry inh 17%[46.1 µM], SARS PLP yeast -1%, StopGo reporter -15%, RE007 growth inh -7% and Lassa entry inh 15%.
CCNc1c2c(nc3ccccc13)CC(C)(C)CC2=O was read as MARV entry inh -23%, SARS PLP yeast -23%, Cruzain inh noDet 7%, StopGo reporter -7%, Cruzain inh Det -5.1%, NS1 inh -3%, RE007 growth inh -14% and Lassa entry inh -3%.
O=C(Nc1ccc(OC(F)(F)C(F)F)c(NC(=O)c2cccc(F)c2)c1)c1cccc(F)c1 was read as MARV entry inh -21%, SARS PLP yeast -5%, Cruzain inh noDet -2%, StopGo reporter 15%, Cruzain inh Det -3.1%, NS1 inh 8%, RE007 growth inh -1% and Lassa entry inh 11%.
N#C/C(=C\c1ccc(O)c(Br)c1)C(=O)NCc1ccccc1 was read as MARV entry inh inconclusive, SARS PLP yeast -1%, StopGo reporter 3%, NS1 inh 0%, RE007 growth inh 3% and Lassa entry inh -13%[46.1 µM].
Screening COc1ccc(-c2ocnc2C(=O)NCc2nn(-c3ccccc3)nc2C)cc1 returned SARS PLP yeast 0%, StopGo reporter -50%, NS1 inh 0% and RE007 growth inh 2%.
`CCC1(c2ccc(F)cc2)NC(=O)N(CC(=O)Nc2ccc(-c3nc4ccc(C)cc4s3)cc2)C1=O` (configuration not stated) gave MARV entry inh inconclusive, SARS PLP yeast -8%, Cruzain inh noDet 13µM*, StopGo reporter -12%, Cruzain inh Det -11%, NS1 inh -33%, RE007 growth inh -8% and Lassa entry inh inconclusive.
Screening Cc1ccc(N2CC(C(=O)N3CCN(C(=O)c4ccco4)CC3)CC2=O)cc1 (configuration not stated) returned MARV entry inh -8%, SARS PLP yeast 4%, Cruzain inh noDet 3%, Cruzain inh Det 2.2%, NS1 inh -3%, RE007 growth inh 0% and Lassa entry inh -4%.
CC1CCCCC1NC(=O)CN1CCN(Cc2ccccc2Cl)C1=O (configuration not stated) was read as MARV entry inh 9%&-7%, SARS PLP yeast 11%, Cruzain inh noDet 8%, StopGo reporter -20%, Cruzain inh Det -1.6%, NS1 inh -20%, RE007 growth inh 0% and Lassa entry inh 16%&-14%.
`Cn1c(CCNC(=O)c2ccco2)nc2cc(NC(=O)c3ccco3)ccc21` gave MARV entry inh 14%, SARS PLP yeast -2%, Cruzain inh noDet 9%, StopGo reporter 54%[activator], Cruzain inh Det -0.4%, NS1 inh -4%, RE007 growth inh 11% and Lassa entry inh inconclusive.
`CCOc1ccccc1NC(=O)CN(c1ccc(C)cc1)S(=O)(=O)c1c(C)noc1C` gave MARV entry inh inconclusive, SARS PLP yeast -1%, Cruzain inh noDet 6%, StopGo reporter inconclusive, Cruzain inh Det 0.7%, NS1 inh -6%, RE007 growth inh 3% and Lassa entry inh inconclusive.
`Cc1ccc(NC(=O)c2c(Cl)n(C)c3ccccc23)cc1` gave MARV entry inh inconclusive, SARS PLP yeast -13%, Cruzain inh noDet 7%, StopGo reporter 29%, Cruzain inh Det -3.8%, NS1 inh -45%, RE007 growth inh -9% and Lassa entry inh -30%.
c1ccc2c(c1)ncn2Cc1nnc2sc(-c3ccncc3)nn12 was read as MARV entry inh -3%, SARS PLP yeast 4%, Cruzain inh noDet -3%, StopGo reporter -2%, Cruzain inh Det 0.9%, NS1 inh -117%, RE007 growth inh -3% and Lassa entry inh -1%.
C=C[C@]12CC[C@H](OC(C)=O)CC1=CCC1C2CC[C@@]2(C)C1CCC21OCCO1 (some centres not stated) was read as MARV entry inh -3%[46.1 µM], StopGo reporter -15%, RE007 growth inh -12% and Lassa entry inh 8%[46.1 µM].
COc1cc(NC(=O)Nc2cccc(-c3noc(C)n3)c2)cc(OC)c1OC was read as Cruzain inh noDet 1%, StopGo reporter inconclusive, Cruzain inh Det -3.7% and Lassa entry inh 0%[46.1 µM].
Screening COC(=O)C(NC(=O)c1ccccc1)(Nc1cc(C)cc(C)n1)C(F)(F)F (configuration not stated) returned MARV entry inh -4%, SARS PLP yeast -6%, Cruzain inh noDet 4%, StopGo reporter -5%, Cruzain inh Det -8.5%, NS1 inh 2%, RE007 growth inh -10% and Lassa entry inh -5%.
Screening COc1ccc(CCNC(=O)c2sc3nc4n(c(=O)c3c2C)CCC4)cc1 returned MARV entry inh 14%, SARS PLP yeast -7%, StopGo reporter -20% and RE007 growth inh -10%.
For O=C1c2ccccc2-c2cccc(NS(=O)(=O)c3ccc(C(F)(F)F)cc3)c21 the results were MARV entry inh 19%, SARS PLP yeast -3%, Cruzain inh noDet -19%, StopGo reporter -22%, Cruzain inh Det -0.2%, NS1 inh 8%, RE007 growth inh 5% and Lassa entry inh 3%.
Screening O=C1c2ccccc2C(=O)N1c1ccc(Cl)cc1 returned MARV entry inh 1%, SARS PLP yeast 0%, Cruzain inh noDet -1%, Cruzain inh Det inconclusive and NS1 inh -3%.
Screening CC(C)c1ccc(N(C(=O)CNC(=O)c2ccco2)C(C(=O)NC2CCCC2)c2ccncc2)cc1 (configuration not stated) returned MARV entry inh -18%[46.1 µM], SARS PLP yeast 5%, StopGo reporter 9%, NS1 inh -18%, RE007 growth inh 6% and Lassa entry inh 17%[46.1 µM].
COc1cc(C2SCC(=O)N2CCCN(C)C)cc(OC)c1OC (configuration not stated) was read as MARV entry inh 1%, SARS PLP yeast 7%, Cruzain inh noDet -9%, StopGo reporter 0%, Cruzain inh Det 7.0%, NS1 inh 1%, RE007 growth inh 12% and Lassa entry inh 17%.
Screening CCN(CC(=O)Nc1cc(Cl)ccc1C)C(=O)c1cc(S(=O)(=O)N2CCCCCC2)ccc1OC returned MARV entry inh inconclusive, SARS PLP yeast 4%, StopGo reporter -25% and RE007 growth inh -6%.
`COc1ccc(C)cc1Nc1cc(C)nc2ncnn12` gave MARV entry inh 10%, SARS PLP yeast 10%, Cruzain inh noDet 2%, StopGo reporter -19%, Cruzain inh Det 1.4%, NS1 inh -25%, RE007 growth inh 27% and Lassa entry inh -5%.
`CCc1cccc(NC(=O)c2cc(S(=O)(=O)N(C)C)ccc2N2CCCC2)c1` gave MARV entry inh inconclusive, SARS PLP yeast 0%, StopGo reporter -16%, RE007 growth inh 22% and Lassa entry inh -8%.
For COc1ccc(-c2nc3ccccc3nc2-c2ccc(OC)c(OC)c2)cc1OC the results were SARS PLP yeast -6%, StopGo reporter -19%, NS1 inh 4% and RE007 growth inh -12%.
COc1ccccc1NC(=O)c1ccc(COc2ccc(C)c(C)c2)o1 was read as MARV entry inh inconclusive, Cruzain inh noDet -12%, StopGo reporter 26%, Cruzain inh Det -9.0% and Lassa entry inh -14%[46.1 µM].
Screening Cc1ccc(Nc2nc3ccccc3n3nnnc23)cc1 returned MARV entry inh inconclusive, SARS PLP yeast -1%, StopGo reporter 30%, NS1 inh -1%, RE007 growth inh -12% and Lassa entry inh -21%.
For O=C(Nc1cccc(Cl)c1)c1cnn2cccnc12 the results were MARV entry inh inconclusive, SARS PLP yeast -14%, Cruzain inh noDet -6%, StopGo reporter 41%[activator], Cruzain inh Det 3.8%, NS1 inh -12%, RE007 growth inh 14% and Lassa entry inh inconclusive.
`Cc1cccc(NC(=O)C[n+]2cccc(C)c2)c1` gave MARV entry inh -9%, SARS PLP yeast -4%, StopGo reporter -6%, NS1 inh 4%, RE007 growth inh -9% and Lassa entry inh 6%.

Assay outcomes from PubChem BioAssay.
